PrP 5UTR inh = inhibition of PrP 5' UTR reporter expression; AID 488862; cell-based PrP 5' UTR mRNA reporter, plate reader; inhibition, % (concentration not given with the values); 340,000 tested, 0.35% active;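 active = every replicate at 50% or more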;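 also: 0 = median of the neutral control wells; tested in H4 reporter cells; numbers are from one replicate; inactives centre near -14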
BJeLR viability = BJeLR cell viability loss. BJeLR (HRASV12) viability, CellTiter-Glo ATP luminescence, 48 h; reference of the scale not given here. inhibition, % (concentration not given with the values). 300,000 tested, 0.17% active;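 active = replicate mean above 50%; inconclusive = above 50% but judged a plate artefact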;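 also: 50 nL library stock added to about 25 µL; numbers are from one replicate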
Sa ugtP lethal = growth inhibition of S. aureus ugtP deletion strain | S. aureus RN4220 ugtP deletion, OD600 growth, 16 h; some inactives read as strong as hits | growth inhibition, % (no concentration beside the values) | 330,000 tested, 0.54% active | AID 1259309;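 active = z-score under -3 and OD600 up to 0.15 on both plates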;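 also: plate controls were untreated wells for no effect and antibiotic for full effect; wells of about 80 µL received 100 nL stock; the first replicate is given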
Mtb hypoxia rep = inhibitors of hypoxia-regulated fluorescent reporter in Mycobacterium tuberculosis. M. tuberculosis hypoxia-regulated fluorescent reporter, fluorescence. fluorescence inhibition, % (no concentration beside the values). 300,000 tested, 0.1% active;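 active = 35 to 45% if threefold the growth effect, above 45% if 1.5-fold the growth effect; inactive = the rest, general growth blockers included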;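 also: wells of about 50 µL received 100 nL stock; 0% = vehicle wells and 100% = reference inhibitor wells; whole bacteria with a GFP reporter of the hypoxia response; strong numbers were not always called active; many hits fall short of the cut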
Bead autofluor = flagged as autofluorescent in microsphere protease counterscreen; fluorescence intensity (no concentration beside the values); compound autofluorescence counterscreen, microsphere flow cytometry; active compounds read high; 360,000 tested, 3.1% active;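 active = at least 3 SD above the mean of all compounds, about 16000 in these data; inconclusive = too few beads counted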;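 also: 100 nL of 1 mM stock went into each well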
Sa RN4220 lethal = kills Staphylococcus aureus RN4220. S. aureus RN4220 growth, OD600, 16 h. inhibition, % (test concentration not listed). AID 1259311. 330,000 tested, 0.33% active;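 active = z-score of -3 or lower and OD600 up to 0.18 on both plates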;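 also: plate controls were untreated cells for no effect and reference antibiotic for full effect; stock transfer was 100 nL into about 80 µL; one replicate is shown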
Mtb hypoxia rep growth = further read-out of Mtb hypoxia rep, marked with its call; growth inhibition, %; measured here: M. tuberculosis growth (absorbance);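 0% = vehicle and 100% = reference antibiotic; read after six days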
Starred values were filed as active, the others as inactive.

For CN(C(=O)COC(=O)c1cc(-c2ccco2)nc2ccccc12)C1CCS(=O)(=O)C1 (configuration not stated) the results were PrP 5UTR inh -7.6, BJeLR viability 7.6, Sa ugtP lethal 7.3, Mtb hypoxia rep 5.7, Bead autofluor 4603, Sa RN4220 lethal 1.7 and Mtb hypoxia rep growth -0.3.
For CC(C)(C)NC(=O)C(c1ccc(F)cc1)N(Cc1ccccc1Cl)C(=O)c1ccn[nH]1 (configuration not stated) the results were PrP 5UTR inh -12.6, BJeLR viability -1.4, Sa ugtP lethal 7.0, Mtb hypoxia rep 5.6, Bead autofluor 3861, Sa RN4220 lethal 13.6 and Mtb hypoxia rep growth 4.2.
`COc1ccc(OC)c(/C=N/NC(=O)c2ccc(N(C)S(=O)(=O)c3ccccc3)cc2)c1` gave PrP 5UTR inh -16.2, BJeLR viability -5.7 and Bead autofluor 2030.
`CCCN=C1CC(C)(C)CC(=O)/C1=C(/O)CCC` gave PrP 5UTR inh -8.6, BJeLR viability 6.2 and Bead autofluor 2821.
For CC(Oc1cc2oc(=O)c3c(c2cc1Cl)CCC3)C(=O)NCCCN1CCOCC1 (configuration not stated) the results were PrP 5UTR inh -6.5, BJeLR viability 3.7, Sa ugtP lethal 4.1, Mtb hypoxia rep 2.5, Bead autofluor 5328, Sa RN4220 lethal 1.2 and Mtb hypoxia rep growth 2.9.
For Cc1cc(C(=O)CSc2nc(N)cc(N)n2)c(C)n1C1CC1 the results were PrP 5UTR inh -34.6, BJeLR viability -5.9, Sa ugtP lethal 3.8, Mtb hypoxia rep -4.3, Bead autofluor 3349, Sa RN4220 lethal 3.8 and Mtb hypoxia rep growth 6.8.
`CN(C)c1oc(-c2ccccc2)nc1C#N` gave PrP 5UTR inh -7.0, BJeLR viability -10.4, Sa ugtP lethal 16.1, Mtb hypoxia rep 3.6, Bead autofluor 22791*, Sa RN4220 lethal 7.6 and Mtb hypoxia rep growth -2.0.
Screening CCc1ccc(NC(=O)C(=S)NC2CCCCC2)cc1 returned PrP 5UTR inh -65.4, BJeLR viability -5.1, Sa ugtP lethal -3.6, Mtb hypoxia rep 5.3, Bead autofluor 4482, Sa RN4220 lethal 32.5 and Mtb hypoxia rep growth 7.1.
`CCN(CC)Cc1c(C(=O)OC)nnn1-c1nonc1N` gave PrP 5UTR inh 3.5, BJeLR viability -1.2, Sa ugtP lethal 7.3, Bead autofluor 2243 and Sa RN4220 lethal -6.9.
Cc1ccc(C(=O)NC2CC(C)(C)NC(C)(C)C2)cc1 was read as PrP 5UTR inh -6.2, BJeLR viability -0.4 and Bead autofluor 2934.
Cc1cc(C)n2cc(CSc3nnc(-c4ccccc4)o3)nc2n1 was read as PrP 5UTR inh 6.0, BJeLR viability 10.2, Sa ugtP lethal -2.1, Mtb hypoxia rep 8.5, Bead autofluor 2601, Sa RN4220 lethal -10.8 and Mtb hypoxia rep growth 8.0.
O=C(Cn1ncc2c(=O)oc3ccccc3c21)N1CCCN(Cc2ccccc2F)C1 was read as PrP 5UTR inh -2.2, BJeLR viability -21.3, Sa ugtP lethal -7.5, Mtb hypoxia rep 2.4, Bead autofluor 6393, Sa RN4220 lethal -9.0 and Mtb hypoxia rep growth 1.4.
For O=C(NCc1ccccc1)c1cccc(S(=O)(=O)N2CCOCC2)c1 the results were PrP 5UTR inh -26.7, BJeLR viability 2.3, Sa ugtP lethal 5.0, Bead autofluor 2396 and Sa RN4220 lethal -2.5.
For O=C(COC(=O)C1CC1)Nc1c(Cl)cccc1C(F)(F)F the results were PrP 5UTR inh -24.5, BJeLR viability -9.5, Sa ugtP lethal 1.9, Mtb hypoxia rep -5.1, Bead autofluor inconclusive, Sa RN4220 lethal 3.3 and Mtb hypoxia rep growth -6.9.
COc1ccc2[nH]c(C)c(-c3csc(N)n3)c2c1 was read as PrP 5UTR inh -11.5, BJeLR viability -1.3, Sa ugtP lethal -1.5, Mtb hypoxia rep -0.8, Bead autofluor 3326, Sa RN4220 lethal -2.3 and Mtb hypoxia rep growth 2.0.
Screening CCC(c1nnnn1C(C)(C)CC)N(CCCO)Cc1cc2cc(C)cc(C)c2[nH]c1=O (configuration not stated) returned PrP 5UTR inh 66.5, BJeLR viability -4.9, Sa ugtP lethal 5.2, Bead autofluor 3646 and Sa RN4220 lethal -3.3.
`O=C(NCC(=O)N1CCC2(CC1)NCCc1[nH]cnc12)c1cccc(Cl)c1` gave PrP 5UTR inh -21.3, BJeLR viability -0.5, Sa ugtP lethal 0.3, Mtb hypoxia rep 2.1, Bead autofluor 5031, Sa RN4220 lethal 0.5 and Mtb hypoxia rep growth 3.9.
Screening COc1cccc(C(=O)Nc2ccc(S(=O)(=O)Nc3cc(C)nc(C)n3)cc2)c1 returned PrP 5UTR inh -12.3, BJeLR viability 6.7, Sa ugtP lethal -0.4, Mtb hypoxia rep 2.3, Bead autofluor 4239, Sa RN4220 lethal 2.5 and Mtb hypoxia rep growth 1.1.
For CN(C)c1ccc(/C=C/c2cccc[n+]2[O-])cc1 the results were PrP 5UTR inh -85.5, BJeLR viability -3.4 and Bead autofluor 4062.
Cc1cccc(S(=O)(=O)NCCc2ccccc2)c1 was read as PrP 5UTR inh -20.6, Sa ugtP lethal -2.4, Mtb hypoxia rep 5.1, Bead autofluor 3187, Sa RN4220 lethal 5.2 and Mtb hypoxia rep growth 1.1.
CCCCNC(=O)CSc1nc2ccccc2n1S(=O)(=O)c1ccc(Br)cc1 was read as PrP 5UTR inh -22.2, BJeLR viability 3.6, Sa ugtP lethal -12.1, Mtb hypoxia rep -6.5, Bead autofluor 1970, Sa RN4220 lethal -3.4 and Mtb hypoxia rep growth 13.1.
`CC(=O)Nc1ccc(NC(=O)CSc2ccc3nnc(CCNC(=O)c4ccccc4)n3n2)cc1` gave PrP 5UTR inh -8.1, BJeLR viability 8.3, Sa ugtP lethal 4.6, Mtb hypoxia rep 6.1, Bead autofluor 4404, Sa RN4220 lethal 3.5 and Mtb hypoxia rep growth 7.8.
Screening CC1CN(C(C)CO)C(=O)c2cccc(NC(=O)Nc3ccccc3)c2OC1CN(C)S(=O)(=O)c1ccc(F)cc1 (configuration not stated) returned Sa ugtP lethal -3.5, Mtb hypoxia rep 5.1, Sa RN4220 lethal 5.2 and Mtb hypoxia rep growth 7.2.
Screening COc1ccc(C(C)=O)cc1CN1CC=C(c2ccccc2)CC1 returned PrP 5UTR inh -17.2, BJeLR viability -3.4, Sa ugtP lethal -0.8, Mtb hypoxia rep 2.0, Bead autofluor 3795, Sa RN4220 lethal 3.1 and Mtb hypoxia rep growth 10.6.
For O=C(CCn1c(=O)oc2ccccc21)NCCC1=CCCCC1 the results were PrP 5UTR inh -18.4, BJeLR viability -8.4, Sa ugtP lethal 17.7, Mtb hypoxia rep 6.7, Bead autofluor 4086, Sa RN4220 lethal 6.1 and Mtb hypoxia rep growth 16.4.
For COc1cccc(NC(=O)CSc2ncnc3c2oc2ccccc23)c1 the results were PrP 5UTR inh 5.6, BJeLR viability 4.2, Sa ugtP lethal 3.8, Mtb hypoxia rep 6.1, Bead autofluor 6141, Sa RN4220 lethal 2.1 and Mtb hypoxia rep growth 7.5.
Screening O=C1c2ccccc2-c2ccc(C(=O)N3CCCCC3)cc21 returned PrP 5UTR inh -31.1, BJeLR viability -5.0, Sa ugtP lethal -6.0, Mtb hypoxia rep 3.0, Bead autofluor 3118, Sa RN4220 lethal 4.2 and Mtb hypoxia rep growth 8.5.
CCCCC(CC)CN1C(=O)/C(=C/c2ccncc2)SC1=S (configuration not stated) was read as PrP 5UTR inh -6.0, BJeLR viability 4.2, Sa ugtP lethal -1.1, Bead autofluor 2310 and Sa RN4220 lethal -6.6.
Screening O=C(CSc1nnc(CNC(=O)c2cccs2)o1)Nc1ccc(Cl)cc1 returned PrP 5UTR inh -13.3, BJeLR viability 1.8, Sa ugtP lethal -1.5, Mtb hypoxia rep 3.6, Bead autofluor 5156, Sa RN4220 lethal -1.0 and Mtb hypoxia rep growth 6.2.
Screening COc1cc2c(cc1OC)C(c1ccc(Cl)cc1)CC(=O)N2 (configuration not stated) returned PrP 5UTR inh -4.6, BJeLR viability -3.4, Sa ugtP lethal 4.0, Mtb hypoxia rep 22.8, Bead autofluor 3892, Sa RN4220 lethal -0.3 and Mtb hypoxia rep growth 0.4.
`CCn1c(CC(=O)Nc2ccc(F)cc2)nnc1SCC(=O)Nc1nncs1` gave PrP 5UTR inh -1.2, BJeLR viability -3.6, Sa ugtP lethal 4.4, Mtb hypoxia rep -3.4, Bead autofluor 3510, Sa RN4220 lethal 1.2 and Mtb hypoxia rep growth -2.3.
`CCc1ccc(C(=O)CN2CCSC2=N)cc1` gave PrP 5UTR inh -42.9, BJeLR viability 7.0, Sa ugtP lethal 4.0, Mtb hypoxia rep 4.7, Bead autofluor 2232, Sa RN4220 lethal 1.2 and Mtb hypoxia rep growth 0.1.
CC(C)=CCCC1=CCC(/C(C)=N/NC(N)=O)CC1 (configuration not stated) was read as PrP 5UTR inh -10.0, BJeLR viability -11.9 and Bead autofluor 8192.
Screening COc1ccc2[nH]c(C(=O)O)c(CCC(=O)O)c2c1 returned PrP 5UTR inh -11.5, BJeLR viability 2.4, Sa ugtP lethal 1.3, Bead autofluor 5044 and Sa RN4220 lethal 1.2.
Cc1nn(C)c(=O)n1-c1ccccc1 was read as PrP 5UTR inh -16.1, BJeLR viability -5.9 and Bead autofluor 3995.
Cc1nn(C(=O)CCCC(=O)NCc2ccccc2)c2ccccc12 was read as PrP 5UTR inh 0.5, BJeLR viability -7.9, Sa ugtP lethal 2.8, Mtb hypoxia rep 3.8, Bead autofluor 5482, Sa RN4220 lethal 1.5 and Mtb hypoxia rep growth 2.4.
Screening Cc1ccc(Nc2ncc3c(n2)CC(c2ccco2)CC3=O)c(C)c1 (configuration not stated) returned PrP 5UTR inh -15.2, BJeLR viability 5.3, Sa ugtP lethal 6.6, Bead autofluor 4842 and Sa RN4220 lethal -4.4.
Screening CCC(c1nnnn1Cc1cccs1)N1CCN(c2nc3ccccc3s2)CC1 (configuration not stated) returned PrP 5UTR inh -14.9, BJeLR viability -7.2, Sa ugtP lethal 9.5, Bead autofluor 3516 and Sa RN4220 lethal 3.7.
Screening O=C(CN1CCN(C(=O)c2cccc(F)c2)CC1)Nc1ccccc1F returned PrP 5UTR inh -3.1, BJeLR viability 2.3, Sa ugtP lethal -1.0, Bead autofluor 2006 and Sa RN4220 lethal -0.1.
O=C(Nc1ccc2c(c1)Cc1ccccc1-2)c1ccco1 was read as PrP 5UTR inh -147.2, BJeLR viability 6.5, Sa ugtP lethal 8.1, Mtb hypoxia rep 13.5, Bead autofluor 7247, Sa RN4220 lethal -0.7 and Mtb hypoxia rep growth 1.5.
CC(C)(C)NCc1cccn1-c1sc2c(c1C#N)CCCC2 was read as PrP 5UTR inh -8.5, BJeLR viability -16.8 and Bead autofluor 15928.
`O=C(NCc1ccco1)C1CCCN1S(=O)(=O)c1ccccc1C(F)(F)F` (configuration not stated) gave PrP 5UTR inh -20.2, BJeLR viability 11.7, Sa ugtP lethal -10.7, Mtb hypoxia rep -14.0, Bead autofluor 4204, Sa RN4220 lethal -1.8 and Mtb hypoxia rep growth 8.9.
O=C(COC(=O)C1CC(=O)N(c2ccccc2)C1)c1ccccc1 (configuration not stated) was read as PrP 5UTR inh -18.4, BJeLR viability -16.8, Sa ugtP lethal 2.1, Bead autofluor 4364 and Sa RN4220 lethal 9.5.
Screening Cc1ccccc1OCC(=O)N/N=C1\CCOc2c(C)cccc21 returned PrP 5UTR inh -31.1, BJeLR viability -9.2 and Bead autofluor 20512*.
For COc1ccc(CNC(=S)Nc2cc(C)ccc2C)cc1 the results were PrP 5UTR inh -14.5, BJeLR viability -0.5, Sa ugtP lethal 0.9, Mtb hypoxia rep -1.0, Bead autofluor 3264, Sa RN4220 lethal 0.3 and Mtb hypoxia rep growth 9.6.
`O=C(CSCc1ccccc1)Nc1ccc(S(=O)(=O)Nc2ncccn2)cc1` gave PrP 5UTR inh -6.5, BJeLR viability -0.1, Sa ugtP lethal -1.1, Mtb hypoxia rep 10.3, Bead autofluor 4874, Sa RN4220 lethal 1.0 and Mtb hypoxia rep growth -0.3.

An unsorted share of the library; any-hit rate near 4%.
